# eIF4H inh: inhibitors of RNA binding by human eIF4H; eIF4H fluorescence polarization binding assay; inhibition, % at 35 µM; 290,000 tested, 0.94% active;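 active = 50% or more with normal probe brightness, or confirmed in later tests; inconclusive = above 50% with abnormal brightness, or retests that disagree; inactive = below 50% or failed in later tests; about a fifth of its hits are not listed in these tables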;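 also: calls also rest on retests at 20 µM and on dose response follow-up; 0% = protein and probe with vehicle and 100% = probe without protein; strong numbers were not always called active; many hits fall short of the cut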
# MT1-MMP act inh: inhibitors of human MT1-MMP activation; P50281; HT1080 RFP-PRO-GFP cells, GFP/RFP ratio fluorescence, overnight; percent of plate control window, DMSO zero; GFP/RFP ratio change, % at 20 µM; 360,000 tested, 0.061% active;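 active = GFP/RFP ratio change of at least 30% with cell ATP level not reduced by more than half and red fluorescence within 50% of control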; also: strong numbers were not always called active
#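 Test system: HT1080 RFP-PRO-GFP cells; Benchmarks: DMSO and RFP-L50D-GFP cell wells; Timing: cells overnight before dosing, compound overnight, 37 °C, 5% CO2; Compound: one 20 µM compound dose with 1% DMSO; Read-out: GFP/RFP fluorescence ratio.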
# CSC inhib: cancer stem cell inhibition; cancer stem cell-like cells viability, luminescence; inhibition, % at 7.5 µM; 300,000 tested, 1.1% active;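 active = mean at 75% or more and at least half the replicates too; inconclusive = mean and replicates disagree; tested in HMLE shEcad cells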;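 also: 0% = median of negative and 100% = median of positive control wells; the first replicate is given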
# UUG fidelity: modulators of start codon recognition fidelity in yeast; S. cerevisiae UUG-firefly luciferase reporter, luminescence/redox ratio; 350,000 tested, 0.13% active; activity score, % at 18.7 µM;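 active = replicate mean at a twofold rise or more, about +100% in these data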;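 also: firefly luciferase made from a UUG start codon reports start codon fidelity; reporter light over untreated wells divided by growth signal over untreated wells; some hits fall short of that in this replicate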
# Env fusion inh: blocks HIV Env-driven cell-cell fusion. HeLa-JRFL Env/CEM21 cell fusion, luciferase. inhibition, % at 12.3 µM. 360,000 tested, 1.1% active;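 active = mean replicate inhibition score of at least 50 and every replicate individually at or above 50; inconclusive = only one of the two criteria met; inactive = mean below 50 and not all replicates reaching 50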;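 also: 0% = plate neutral controls and 100% = maraviroc near 300 nM; one replicate is shown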
# Rce1 inhib: inhibitors of yeast Ras-converting enzyme; calls only; yeast membranes, quenched prenylated peptide cleavage fluorescence; 290,000 tested, 0.27% active;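 active = fall in fluorescence gain of 50% or more versus controls, with final raw signal at or below 3038400; inconclusive = same 50% fall but final raw signal above 3038400; inactive = fall in fluorescence gain under 50%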;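 also: plate controls were neutral control wells for no effect and wells lacking membranes for full effect; tested at 10 µM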
# Target sequence (Q03530 whole entry, looked up): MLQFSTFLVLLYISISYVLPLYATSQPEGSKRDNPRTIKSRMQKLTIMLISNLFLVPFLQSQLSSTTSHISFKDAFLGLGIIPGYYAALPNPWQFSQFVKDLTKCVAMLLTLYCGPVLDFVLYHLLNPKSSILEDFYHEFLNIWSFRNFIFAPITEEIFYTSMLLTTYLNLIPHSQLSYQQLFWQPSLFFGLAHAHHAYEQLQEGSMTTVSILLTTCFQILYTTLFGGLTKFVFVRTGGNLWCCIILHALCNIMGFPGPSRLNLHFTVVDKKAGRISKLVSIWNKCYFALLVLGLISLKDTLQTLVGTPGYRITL
# PABP polyA inh: PABP-poly(A) binding inhibition; PABP-poly(A) RNA binding, fluorescence polarization; AID 2014; 290,000 tested, 1% active; P11940; inhibition, % at 35 µM;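 active = 50% or more with normal probe brightness, or confirmed in later tests; inconclusive = above 50% with abnormal brightness, or retests that disagree; inactive = below 50% or failed in later tests; about a fifth of its hits are not listed in these tables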;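 also: calls also rest on retests at 20 µM and on dose response follow-up; controls were probe without protein and protein plus probe with vehicle; some compounds called inactive have numbers as strong as hits; many hits fall short of the cut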
# Target sequence (P11940 whole entry, looked up): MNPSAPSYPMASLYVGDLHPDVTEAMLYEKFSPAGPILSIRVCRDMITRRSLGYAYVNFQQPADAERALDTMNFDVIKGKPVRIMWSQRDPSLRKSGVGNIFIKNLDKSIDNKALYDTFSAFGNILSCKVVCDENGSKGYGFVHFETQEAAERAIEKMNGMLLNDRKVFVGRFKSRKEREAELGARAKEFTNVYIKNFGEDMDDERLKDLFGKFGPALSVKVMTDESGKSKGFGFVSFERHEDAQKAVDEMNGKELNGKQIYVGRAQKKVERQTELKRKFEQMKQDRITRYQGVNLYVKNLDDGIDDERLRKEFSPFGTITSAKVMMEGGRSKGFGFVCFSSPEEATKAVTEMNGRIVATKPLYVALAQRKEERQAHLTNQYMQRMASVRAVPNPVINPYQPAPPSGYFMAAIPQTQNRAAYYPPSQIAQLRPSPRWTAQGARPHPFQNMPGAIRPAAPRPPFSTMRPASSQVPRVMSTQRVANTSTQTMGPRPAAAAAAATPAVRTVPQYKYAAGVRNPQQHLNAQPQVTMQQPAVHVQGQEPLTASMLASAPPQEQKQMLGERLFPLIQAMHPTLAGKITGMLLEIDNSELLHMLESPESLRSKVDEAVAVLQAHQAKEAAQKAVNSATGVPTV
# MT1-MMP act inh RFP: also measured in MT1-MMP act inh; calls as there; RFP signal change, %; measured here: RFP expression control read;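 0 = vehicle wells; hits needed this value within 50% of zero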
# An asterisk follows results filed as active; i = inactive; ? = inconclusive; · = not tested or not shown; & = joins results of further samples.
Compound	eIF4H inh	MT1-MMP act inh	MT1-MMP act inh RFP	CSC inhib	UUG fidelity	Env fusion inh	Rce1 inhib	PABP polyA inh
O=[N+]([O-])c1cnccc1Nc1ccc(Cl)cc1	-3	0	-1	20	·	-3	i	-8
Cc1ccc(NC(=S)Nc2ccc3[nH]c(=O)[nH]c3c2)cc1	-8	0	1	-10	·	3	i	-5
CCn1c(SCC(=O)Nc2oc(-c3ccccc3)c(-c3ccccc3)c2C#N)nnc1-c1ccco1	2	-2	-7	2	·	·	i	-7
CC(c1ccccc1)C1CC(=O)N(Cc2ccccc2)C1=O (stereo unspecified)	7	1	-1	·	·	-10	i	-9
CCOC(=O)CSc1ccc(C(=O)NCCN2CCOCC2)cc1[N+](=O)[O-]	2	-2	-1	-3	-9	-9	i	-1
O=[N+]([O-])c1cccc(/C=N/N2CCN(Cc3ccc(Cl)cc3)CC2)c1	-6	3	-5	22	1	8	i	2
CSc1ccc(S(=O)(=O)NCC(=O)OCC(=O)N2CCCCC2C)cc1[N+](=O)[O-] (stereo unspecified)	·	2	2	2	3	3	i	·
Cc1cc(NC(=O)CSc2nc3[nH]c(=O)cc(O)c3s2)ccc1Br	·	0	4	·	-5	18	·	·
CCOC(=O)Cn1c(-c2cccnc2Cl)nc2ccccc21	0	-1	-1	-3	-22	-10	i	-2
Cc1ccc2c(c1)c1c(n2CC(O)CN2CCCCCC2)CCCC1 (stereo unspecified)	-9	-3	-1	3	-5	7	i	6
CC(C)c1ccc(NC(=O)Nc2cc3sccc3n2C)cc1	?	2	14	20	-7	-16	i	-8
O=C(CN(C(=O)CCC(=O)Nc1nccs1)c1ccccc1F)NCCc1ccccc1	2	-1	1	·	-3	1	i	-2
O=C(NCc1ccccc1)c1ccc(S(=O)(=O)C(F)F)cc1	-4	0	-3	0	-14	·	i	-1
CN(C)S(=O)(=O)c1cc(NC(=O)CSc2nn(-c3ccc(Cl)cc3)c(=S)s2)ccc1Cl	-11	-1	-22	16	·	133*	i	-9
NC(=O)CSc1nnc(-c2ccncc2)n1-c1ccc(Cl)cc1	-5	2	-3	-5	-19	-2	i	-2
CC(NC(=O)CCNC(=O)c1ccco1)c1ccc(F)cc1 (stereo unspecified)	-6	0	4	11	-9	-10	i	9
Nc1ccc(S(=O)(=O)Nc2nccc(/C=C/c3cccc([N+](=O)[O-])c3)n2)cc1	·	-2	-5	·	-14	16	·	·
CCN(CC)S(=O)(=O)c1ccc(OCC(=O)NC(=O)Cc2ccccc2)c([N+](=O)[O-])c1	·	-1	3	7	-30	·	·	·
COc1ccc(C2(O)C(=O)Nc3ccccc32)cc1 (stereo unspecified)	-2	0	2	3	-21	-1	i	-4
COc1cc(NS(=O)(=O)c2ccc3c(c2)n(C)c(=O)n3C)cc(OC)c1	-1	3	2	-6	-9	·	i	-2
CN1CCN(c2ccc([N+](=O)[O-])cc2C(=O)c2ccc(Cl)cc2)CC1	2	-1	-10	-4	·	·	i	-7
CCOc1ccc(NC(=O)N2CCN(CC)CC2)cc1	-1	-1	0	-7	-12	-20	i	6
Cc1ccccc1Nc1nc(N)nc(CSc2nnnn2C)n1	-5	0	4	-10	·	0	i	-3
CN(Cc1ccccc1)C(=O)CN(C)S(=O)(=O)c1ccc(F)cc1	-2	0	0	-2	-4	-8	i	13
COCCn1c(SCC(=O)N2CCCC(C)C2)nnc1-c1ccco1 (stereo unspecified)	-10	0	6	-9	-16	3	i	6
COc1ccc(S(=O)(=O)N2CCN(C(=O)CNC(=O)c3ccc4c(c3)OCO4)CC2)cc1	·	-2	-2	2	·	-9	·	·
CC(C)c1ccc(OCC(=O)NCc2n[nH]c(=O)c3ccccc23)cc1	·	1	-1	·	-10	-25	i	·
COC(=O)c1ccccc1NC(=S)N1CCN(C2CCCCC2)CC1	4	0	3	-18	·	3	i	-2
CCC(C)(C)NC(=O)C(c1ccc(OC)cc1)N(CC1CCCO1)C(=O)CCC(=O)Nc1cc(C)on1 (stereo unspecified)	4	-2	2	-8	-1	28	·	0
c1ccc2ccccc2c1	·	2	4	-1	-8	·	·	·

# In another format: entries from further up
COc1ccc(C2(O)C(=O)Nc3ccccc32)cc1 (stereo unspecified)
  eIF4H inh = -2
  MT1-MMP act inh = 0
  MT1-MMP act inh RFP = 2
  CSC inhib = 3
  UUG fidelity = -21
  Env fusion inh = -1
  Rce1 inhib = i
  PABP polyA inh = -4
c1ccc2ccccc2c1
  eIF4H inh = ·
  MT1-MMP act inh = 2
  MT1-MMP act inh RFP = 4
  CSC inhib = -1
  UUG fidelity = -8
  Env fusion inh = ·
  Rce1 inhib = ·
  PABP polyA inh = ·

# (cont.)
Compound	eIF4H inh	MT1-MMP act inh	MT1-MMP act inh RFP	CSC inhib	UUG fidelity	Env fusion inh	Rce1 inhib	PABP polyA inh
COc1cccc(CNC(=O)C2CCN(S(=O)(=O)c3ccc(-n4cnnn4)cc3)CC2)c1	-7	3	6	8	-9	22	i	12
COCc1cc(C)nc(OCC(=O)N/N=C/c2ccccc2O)c1C#N	-9	6	8	47	·	2	i	-4
Cc1cc(Cl)ccc1OCC(=O)N1CCCN(C(=O)COc2ccc(Cl)cc2C)CC1	-5	-1	-16	-2	·	115*	i	1
Cc1ccccc1CSCC(=O)N1CCN(c2ccccc2)CC1	6	5	1	19	·	-32	i	8
Cc1c(C(=O)NCc2cccc(Cl)c2)sc(=O)n1Cc1ccc(F)cc1	·	6	-2	·	-17	0	·	·
CC(Nc1nc2ncn(Cc3ccccc3)c2c(=O)[nH]1)C(=O)O (stereo unspecified)	-2	2	5	-14	-12	·	i	-3
CC(C)CN(C(=O)Cn1nnc(-c2ccc(F)cc2)n1)C1CCS(=O)(=O)C1 (stereo unspecified)	·	1	0	-11	·	-27	i	·
COc1ccc(C(CCN2CCN(c3ccccc3)CC2)c2c(O)cc(OC)cc2OC)cc1 (stereo unspecified)	-12	-1	-1	11	-8	-29	i	-1
Cc1cc(C)n(C(=O)CCCn2nc(C)c([N+](=O)[O-])c2C)n1	-2	2	4	-13	·	-1	i	4
CCCCCCc1cc2cc(-c3nnc(-c4cc(OC)c(OC)c(OC)c4)o3)c(=O)oc2cc1O	?	·	·	77*	·	·	i	17
COc1cccc(N2CCN(S(=O)(=O)c3cccc4cccnc34)CC2)c1	-4	-1	-1	0	·	14	i	-8
CCc1ccc2oc(C(=O)Nc3ccc(S(N)(=O)=O)cc3)c(C)c2c1	-2	1	-1	-11	-17	-2	i	3
COc1ccc(C2Nc3ccccc3C(=O)N2Cc2ccco2)cc1CN1C(=O)c2ccccc2C1=O (stereo unspecified)	2&-9	0&0	-5&-6	-11&-11	5&-13	18	i	2&-6
COc1cc(/C=N/Nc2nc(Nc3ccccc3)nc(-n3nc(C)cc3C)n2)cc(OC)c1OC	4	-13	-15	102*	-35	2	i	2
COc1ccc(-c2c(C)nc(N)nc2-c2ccc(OC)cc2O)cc1	66*	-6	-4	3	-18	10	i	55*

# Quoted from the listing.
# COc1cccc(N2CCN(S(=O)(=O)c3cccc4cccnc34)CC2)c1 @ PABP polyA inh = -8
# COc1ccc(C2Nc3ccccc3C(=O)N2Cc2ccco2)cc1CN1C(=O)c2ccccc2C1=O (stereo unspecified) @ CSC inhib = -11&-11
# CC(C)CN(C(=O)Cn1nnc(-c2ccc(F)cc2)n1)C1CCS(=O)(=O)C1 (stereo unspecified) @ CSC inhib = -11
# COc1ccc(-c2c(C)nc(N)nc2-c2ccc(OC)cc2O)cc1 @ PABP polyA inh = 55*

# Remaining list, next part
Compound	eIF4H inh	MT1-MMP act inh	MT1-MMP act inh RFP	CSC inhib	UUG fidelity	Env fusion inh	Rce1 inhib	PABP polyA inh
Cc1cc(Cl)ccc1OCC(O)CN1C(C)CCCC1C (stereo unspecified)	-8	·	·	57	·	·	i	-3
Cc1ccc(/C=N/NC(=O)c2nnn(-c3nonc3N)c2CSc2ccc(Cl)cc2)o1	-8	2	0	-12	·	-4	i	3
O=[N+]([O-])c1ccc(OCCN2CCCCCC2)cc1	-7	0	-1	11	·	6	i	1
CCOC(=O)C(=CNc1cc(C(F)(F)F)ccc1N1CCOCC1)C(=O)OCC	13	0	-8	-11	-9	-23	i	0
Cn1c(SCc2nc3ccccc3[nH]2)nnc1-c1cnccn1	-7	6	5	5	-4	·	i	-5
CC(=O)N1N=C(c2ccc(Cl)cc2)OC12CCCC2	3	1	-3	-10	·	8	i	0
O=C(Nc1ccc(F)c(F)c1)c1ccc(-n2cncn2)c([N+](=O)[O-])c1	·	5	-10	-8	-7	·	·	·
CCCNC(=O)c1cn(CC)c2cc(N3CCN(C(=O)c4ccco4)CC3)c(F)cc2c1=O	-3	2	-1	-8	2	17	i	-1
COc1cc([N+](=O)[O-])ccc1-c1ccc(/C=N\n2cnnc2)o1	?	-14	2	-11	-11	-20	i	?
CCOc1ccc(C(=O)NC2CC(=O)N(c3ccc4c(c3)OCCO4)C2)cc1 (stereo unspecified)	·	3	0	-24	-15	-16	i	·
Cc1ccc(F)c(S(=O)(=O)NC(=O)C2(C)CCN2C(=O)c2sccc2C)c1 (stereo unspecified)	·	-10	1	·	-5	3	·	·
CC(=O)c1cc2c(cc1NC(=O)C1CC=CCC1C(=O)O)OCO2 (stereo unspecified)	4	-4	6	-12	·	-5	i	10
O=C(NCCN1CCOCC1)C(=O)NCC1OCCN1S(=O)(=O)c1ccc(F)cc1 (stereo unspecified)	0	0	1	-5	-2	-8	i	-4
CC1=C(C(=O)OCc2ccccc2)C(c2cccc([N+](=O)[O-])c2)NC(=O)N1 (stereo unspecified)	-5	2	-11	-10	-11	11	i	-12
CCc1ccc(NC(=O)C(C)OC(=O)CC(NC(C)=O)c2ccccc2)cc1 (stereo unspecified)	-10	2	2	-15	·	3	i	-7
C/C(=N\NC(=O)c1csc(C)c1C)c1ccco1	-4	1	4	-3	-24	-82	i	-9
Cc1cc(C)n2nc(NCc3ccccc3)nc2n1	-2	3	2	-14	-16	-160	?	-8
Cc1ccc2c(c1)c1c(n2CC(O)Cn2c(C)nc3ccccc32)CCCC1 (stereo unspecified)	10	3	-3	37	-5	-34	i	-2
Clc1cccc(Cl)c1-c1nnc2ccc(N3CCOCC3)nn12	-10	-10	3	-14	-7	·	i	2
Cc1cccc(-n2cc3c(=O)n(C)c(=O)n(C)c3c2)c1	-12	1	1	-3	·	-8	i	4
Cc1ccc(-c2cc(C(F)F)n3ncc(C(=O)N4CCc5ccccc5C4)c3n2)cc1	1	-4	-4	42	·	12	·	0
CCOc1cccc(-c2nnc3sc(COc4ccccc4)nn23)c1	2	4	9	0	-20	-231	i	-1
Cc1ccc(S(=O)(=O)N(C)c2ccc(OCC(=O)NCc3ccco3)cc2)cc1	7	-7	-1	13	-9	2	i	4
COc1ccc(NC(=O)c2cccc(OC(=S)N3CCOCC3)c2)cc1	-5	12	-5	16	-10	-4	i	2
Cc1sc(NC(=O)CN2C(=O)NC3(CCCC3)C2=O)nc1-c1ccc(F)cc1	·	1	-4	-8	0	-3	i	·
CCOC(=O)CSc1nc(C)c(Oc2ccc(Cl)cc2Cl)c(=O)[nH]1	7	2	-1	21	-7	1	i	5
Cc1cc[n+](-c2[nH]c(=O)sc2/C=N/N=C(\[O-])CCn2c3ccccc3c3ccccc32)cc1	39	0	1	-14	1	0	i	14
O=C(CSc1nc2ccccc2c(=O)n1-c1ccc(F)c(Cl)c1)Nc1ccc2c(c1)CCC2	·	2	-4	·	-3	-27	·	·
O=C(NC1CCCCC1)C(c1cccnc1)N(C(=O)CCl)c1cccc(Cl)c1 (stereo unspecified)	0	-21	-12	31	-1	·	i	-7
COc1cccc(C2c3c(oc4ccccc4c3=O)C(=O)N2c2ccccn2)c1 (stereo unspecified)	-12	-4	-5	·	-5	-1	i	6
Cc1ccc(CSc2n[nH]c(N)n2)cc1	4	4	1	17	-6	-14	i	-6
